Compound activity as filed in PubChem.
T cruzi inh = blocks replication of Trypanosoma cruzi; T. cruzi beta-gal in NIH3T3, luminescence, 90 h; inhibition, % (no concentration beside the values); 300,000 compounds, 1.4% hits; AID 1885;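 active = mean inhibition across valid replicates above about 55%, limit read from the data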;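 note: signal also drops with host cell toxicity which is not excluded here; 0% = plate median of DMSO wells and 100% = zero luminescence signal; higher percent means less beta-gal luminescence so fewer parasites; stock transfer was 50 nL into about 50 µL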
MLL AF4-AF9 inh = blocks AF4 peptide binding to human AF9; P42568; AlphaScreen, biotin-AF4 peptide binding to FLAG-AF9; inhibition, % at 10 µM; 350,000 compounds, 0.47% hits;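 active = every replicate reaching a set inhibition limit, whatever the replicate mean, cut at about 25% in these data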;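 note: 0% = plate neutral control median and 100% = total signal loss; the record names both 10 and 1 µM as test concentration; the first replicate is given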
Target sequence (P42568 whole entry, looked up): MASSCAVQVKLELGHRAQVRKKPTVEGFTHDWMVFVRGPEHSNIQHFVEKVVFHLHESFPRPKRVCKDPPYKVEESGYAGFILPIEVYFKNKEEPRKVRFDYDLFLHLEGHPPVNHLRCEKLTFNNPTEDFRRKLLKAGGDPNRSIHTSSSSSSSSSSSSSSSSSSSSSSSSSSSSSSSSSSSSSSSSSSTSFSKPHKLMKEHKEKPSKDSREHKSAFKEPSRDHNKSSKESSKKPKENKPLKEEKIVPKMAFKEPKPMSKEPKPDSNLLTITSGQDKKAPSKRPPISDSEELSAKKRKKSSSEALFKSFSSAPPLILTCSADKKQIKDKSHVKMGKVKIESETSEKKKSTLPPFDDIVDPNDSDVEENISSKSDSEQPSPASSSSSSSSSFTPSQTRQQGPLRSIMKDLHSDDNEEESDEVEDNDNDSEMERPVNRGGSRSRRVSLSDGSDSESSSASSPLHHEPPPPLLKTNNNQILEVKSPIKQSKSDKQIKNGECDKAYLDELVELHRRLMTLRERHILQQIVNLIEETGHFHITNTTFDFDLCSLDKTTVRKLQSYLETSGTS
UCH37 inh = human UCH37 deubiquitinating enzyme inhibition; Q9Y5K5; purified proteasome/UCH37, Ub-AMC cleavage fluorescence; inhibition, % (concentration not given with the values); 330,000 compounds, 0.33% hits; AID 588478;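 active = mean of two replicates above 20%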;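 note: 0% = compound-free wells with enzyme and 100% = wells lacking proteasome; stock transfer was 100 nL into about 20 µL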
Target sequence (Q9Y5K5 whole entry, looked up): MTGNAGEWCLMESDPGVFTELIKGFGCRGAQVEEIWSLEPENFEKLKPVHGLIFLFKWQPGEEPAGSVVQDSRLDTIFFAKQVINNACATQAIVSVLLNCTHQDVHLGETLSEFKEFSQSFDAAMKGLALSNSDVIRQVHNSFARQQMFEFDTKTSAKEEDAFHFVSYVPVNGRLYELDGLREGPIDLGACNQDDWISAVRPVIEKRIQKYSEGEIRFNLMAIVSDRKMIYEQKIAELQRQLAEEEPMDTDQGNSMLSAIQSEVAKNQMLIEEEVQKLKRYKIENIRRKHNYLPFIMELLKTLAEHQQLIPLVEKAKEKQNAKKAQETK
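System: Proteasome-associated human UCH37 deubiquitinase; Input: 0.15 nM proteasome in added enzyme buffer; Also added: Ub-AMC substrate from 1 µM stock; Incubation: 30 min compound-proteasome preincubation then 25 min substrate reaction, room temperature; Detection: fluorescence, ex 355 nm, em 460 nm; Read-out: % inhibition of Ub-AMC cleavage fluorescence; Benchmarks: no-proteasome and no-compound wells.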
E coli growth = E. coli growth inhibition; Escherichia coli growth, OD600, 23 h; active compounds read low; 330,000 compounds, 0.21% hits; OD600 absorbance (test concentration not listed);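 active = OD600 absorbance below the run mean of sample wells minus 3.6 SD, in any replicate, cut at about 0.56 in these data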;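 note: stock transfer was 300 nL into about 60 µL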
Beta apoptosis = blocks beta cell apoptosis; 300,000 compounds, 0.8% hits; protection from apoptosis, % (concentration not given with the values); INS-1E cytokine-induced death, ATP luminescence, 48 h; percent of positive-control rescue, neutral wells zero;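 active = all replicates at 75% or more, or half of them and the mean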;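 note: 0% = cytokine-treated negative control wells and 100% = positive control rescue; higher means more ATP so stronger rescue from cytokine killing; wells of about 40 µL received 100 nL stock; the first replicate is given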
FGF22 binding = shifts melting point of recombinant human FGF22. 340,000 compounds, 1.5% hits. AID 651658. recombinant FGF22 thermal shift, SYPRO orange fluorescence; percent of sucrose octasulfate shift, DMSO zero. calls only at 9.99 µM. Q9HCT0;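 active = melting point raised past a set limit in the mean and every replicate; three in four hits are not shown here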
Target sequence (Q9HCT0 whole entry, looked up): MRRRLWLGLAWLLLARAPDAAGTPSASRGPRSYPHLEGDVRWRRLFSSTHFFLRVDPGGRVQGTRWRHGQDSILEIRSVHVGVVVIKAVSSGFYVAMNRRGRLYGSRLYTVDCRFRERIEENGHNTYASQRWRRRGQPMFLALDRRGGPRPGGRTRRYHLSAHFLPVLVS
Ecoli rRNA inh = selective bacterial rRNA inhibition in E. coli; AID 720706; E. coli WT GFP vs humanized-ribosome RFP mutants, fluorescence, 24 h; active compounds read low; DMSO median 0, no signal -100; 350,000 compounds, 1.6% hits; GFP signal change (wild-type ribosome), % (concentration not given with the values);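 active = significant combined selectivity score with lowered wild-type GFP, culture density cut under 30%, mutant RFP and density less affected; inactive = any of these conditions unmet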; note: one replicate is shown; some compounds called inactive have numbers as strong as hits
A1 inh = inhibitors of the anti-apoptotic protein A1, read as caspase activation. MEF A1-2A-BIM cells, Caspase-Glo 3/7 luminescence, 3 h; percent of clofoctol response, vehicle zero. 330,000 compounds, 0.066% hits. caspase activation, % (no concentration beside the values);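 active = over half of replicate activation scores above 10%, or exactly half above 10 with the replicate mean above 10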;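 note: wells of about 30 µL received 50 nL stock; many hits fall short of the cut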
Ecoli rRNA inh OD600 = further read-out of Ecoli rRNA inh, marked with its call; OD600 change, %; measured here: OD600 growth;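 optical density of the mix in the first replicate; 0 = DMSO median and -100 = no signal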
Ecoli rRNA inh RFP = also measured in Ecoli rRNA inh; calls as there; RFP signal change, %; measured here: RFP humanized mutant strains;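 first replicate; 0 = DMSO median and -100 = no signal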
* marks the source's active call; other numbers are inactive results; i = inactive; . = no result given.

SMILES	T cruzi inh	MLL AF4-AF9 inh	UCH37 inh	E coli growth	Beta apoptosis	FGF22 binding	Ecoli rRNA inh	Ecoli rRNA inh OD600	Ecoli rRNA inh RFP	A1 inh
Cc1cccc(-n2c(CNC(=O)c3ccc(S(=O)(=O)N(C)C)cc3)nnc2SCC(=O)Nc2ccc(F)cc2)c1	20	.	1.2	0.64	-1	.	.	.	.	-1.0
Cc1nc([N+](=O)[O-])cn1CC(O)c1ccc(Cl)cc1 (centres undefined)	-11	3.8	5.0	0.66	-3	i	-24	-23	3.7	0.6
CSc1ccccc1C(=O)N1CCN(c2ccc(F)cc2)CC1	-13	.	-2.0	0.64	-4	.	.	.	.	-0.3
CC[C@H](C)C(=O)O[C@H]1CCC=C2C=C[C@H](C)[C@H](CC[C@@H]3C[C@@H](O)CC(=O)O3)[C@H]21	-2	2.1	2.5	.	10	i	.	.	.	1.3
Clc1ccc2nc(N3CCNCC3)nc(-c3ccccc3)c2c1	4	.	-343	0.58	1	.	.	.	.	0.1
CCCCN1C(=O)C2Cc3c([nH]c4ccccc34)CN2C1=S (centres undefined)	17	1.2	-2.0	0.68	-7	i	1	28	4.8	-0.4
COc1cccc(/C=N/n2c(-c3cc(C)[nH]n3)n[nH]c2=S)c1	-9	3.2	.	.	-2	i	.	.	.	0.3
Cc1c(-c2ccc(Br)cc2)nc2ccccn12	-3	-5.1	-20	0.62	7	i	9	4	-0.3	-6.5
Cc1cc(/C=C(\C#N)C(=O)NCc2ccco2)c(C)[nH]1	7	.	4.9	0.69	-4	.	.	.	.	0.6
O=C(NNC(=O)c1cc([N+](=O)[O-])ccc1Cl)c1cccs1	7	-0.7	6.2	0.73	2	i	2	-7	-3.4	-0.7

Two of the compounds above, with each value named.
Molecule: Clc1ccc2nc(N3CCNCC3)nc(-c3ccccc3)c2c1
  T cruzi inh: 4 | MLL AF4-AF9 inh: . | UCH37 inh: -343 | E coli growth: 0.58 | Beta apoptosis: 1 | FGF22 binding: . | Ecoli rRNA inh: . | Ecoli rRNA inh OD600: . | Ecoli rRNA inh RFP: . | A1 inh: 0.1
Molecule: Cc1cc(/C=C(\C#N)C(=O)NCc2ccco2)c(C)[nH]1
  T cruzi inh: 7 | MLL AF4-AF9 inh: . | UCH37 inh: 4.9 | E coli growth: 0.69 | Beta apoptosis: -4 | FGF22 binding: . | Ecoli rRNA inh: . | Ecoli rRNA inh OD600: . | Ecoli rRNA inh RFP: . | A1 inh: 0.6

(listing goes on)
SMILES	T cruzi inh	MLL AF4-AF9 inh	UCH37 inh	E coli growth	Beta apoptosis	FGF22 binding	Ecoli rRNA inh	Ecoli rRNA inh OD600	Ecoli rRNA inh RFP	A1 inh
CCCCc1nnc(NC(=O)C23CC4CC(CC(NC(C)=O)(C4)C2)C3)s1	-4	-0.6	1.1	0.7	-1	i	8	14	-1.3	1.1
O=C(C1CCN(S(=O)(=O)c2cccs2)CC1)N1CCc2ccccc2C1	-7	.	12	0.7	-4	.	-3	-3	0.5	0.6
Cc1c(C(=O)N2CCCCC2)c(S(=O)(=O)N(C)Cc2ccccc2)c(C)n1C	23	4.2	1.6	0.66	3	i	18	8	1.9	2.4
O=C(OCCOCCN=C1NS(=O)(=O)c2ccccc21)c1ccccc1Br	1	-3.0	-0.2	0.6	-1	i	0	-4	1.9	0.4
COc1ccc(CNC(=O)C(C)N2CCN(c3ccc(C(C)=O)cc3)CC2)cc1 (centres undefined)	19	0.0	2.5	0.69	-3	i	1	-12	1.0	1.7
CC1=C(C(=O)Nc2ccc(C(=O)NC(C)c3ccccc3)cc2)SCCO1 (centres undefined)	6	3.0	6.9	0.71	3	i	5	-2	0.3	0.6
CCN(C(=O)CSc1nnc(-c2ccco2)n1CC)c1c(N)n(Cc2ccccc2)c(=O)[nH]c1=O	.	0.5	2.4	0.66	-2	i	23	19	6.3	0.1
COc1cc(C(=O)Nc2nc3ccccc3[nH]2)cc(OC)c1OC	-3	.	1.0	0.66	12	.	.	.	.	1.3
CSc1nc(NC(C)C)nc(N2CCOCC2)n1	-12	.	3.3	0.74	3	.	.	.	.	0.2
COc1ccccc1N(CC(=O)Nc1ccc(S(=O)(=O)N2CCOCC2)cc1)S(C)(=O)=O	2	2.0	1.5	0.7	-3	i	3	0	-1.3	-0.1
CN(C)C(=O)c1ccc2c(c1)n(C)c(=O)n2C	-15	.	1.8	0.68	1	.	.	.	.	0.3
COc1ccc(NS(=O)(=O)c2cccc(C(=O)N3CCC3)c2)cc1	10	-27	0.3	0.68	1	i	9	15	0.0	-0.5
COc1ccccc1C(=O)NCCC(=O)NC(C)CCc1ccccc1 (centres undefined)	-9	-0.1	5.2	0.68	-8	i	1	-5	-1.1	0.1
Cc1ccc(S(=O)(=O)CCC(=O)OCC(=O)Nc2ccc(N3CCOCC3)cc2)cc1	-2	0.2	-0.3	0.68	-4	i	9	15	-1.6	0.3
CC1CCCN(c2ccc3nncn3n2)C1 (centres undefined)	-8	-0.2	4.3	0.69	2	i	3	4	1.2	-0.3
Cc1cccc(C(=O)n2cnnc2N)c1	-3	-1.6	6.0	0.71	-13	i	12	18	-2.6	1.1
CCN(CCn1cccn1)C(=O)CCc1nnc(CCCc2ccccc2)o1	-1	-1.3	1.1	0.68	6	i	-1	6	-1.6	-1.0
Nc1nc(N2CCN(c3cccc(Cl)c3)CC2)n[nH]1	7	3.0	3.5	0.71	-4	i	-8	-5	-3.6	0.7
CCC(C)(C)C1CCc2[nH]nc(C(=O)NC3CCCC3)c2C1 (centres undefined)	.	-1.6	3.3	0.72	-2	i	11	10	-8.4	0.1
CN1N=C2c3ccccc3CCC2C1c1ccc(Cl)cc1 (centres undefined)	-8	-2.8	-16	0.68	.	i	-4	-7	1.4	-0.8

Structural class: the entries above with bromine.
SMILES	T cruzi inh	MLL AF4-AF9 inh	UCH37 inh	E coli growth	Beta apoptosis	FGF22 binding	Ecoli rRNA inh	Ecoli rRNA inh OD600	Ecoli rRNA inh RFP	A1 inh
Cc1c(-c2ccc(Br)cc2)nc2ccccn12	-3	-5.1	-20	0.62	7	i	9	4	-0.3	-6.5
O=C(OCCOCCN=C1NS(=O)(=O)c2ccccc21)c1ccccc1Br	1	-3.0	-0.2	0.6	-1	i	0	-4	1.9	0.4

(further entries)
SMILES	T cruzi inh	MLL AF4-AF9 inh	UCH37 inh	E coli growth	Beta apoptosis	FGF22 binding	Ecoli rRNA inh	Ecoli rRNA inh OD600	Ecoli rRNA inh RFP	A1 inh
O=S(=O)(Nc1nc2ccccc2nc1NCC1CCCO1)c1cccs1 (centres undefined)	11	.	-14	0.79	-9	.	.	.	.	-0.1
COc1cc(C(C)=O)ccc1O	18	0.7	.	.	-7	i	3	12	0.2	-0.6
COC(=O)c1[nH]c2cccc(OC)c2c1NC(=O)CCN1CC(C)CC(C)C1 (centres undefined)	-12	.	-4.5	0.64	-1	.	.	.	.	0.5
NS(=O)(=O)c1ccc(-n2nc(C(=O)O)cc2-c2ccc(Cl)cc2)cc1	0	-1.7	0.3	0.64	-2	i	28	19	4.6	0.4
COc1ccccc1N1CCN(C(=O)c2cccc(N3C(=O)NC4CC3(C)Oc3ccccc34)c2)CC1 (centres undefined)	-5	.	1.2	0.68	-2	.	.	.	.	0.0
Nc1nc(NC(=O)/C=C/c2ccccc2)nn1-c1ccccc1	1	.	1.4	0.64	-1	.	.	.	.	0.0
Cc1ccc(Cn2cc(C(=O)NN)c(=O)c3ccc(F)cc32)cc1	5	-1.4	1.3	0.68	8	i	-8	-5	1.6	0.4
Cc1ccccc1C(=O)Nc1ccc2c(c1)nc(CCNC(=O)c1ccco1)n2C	-4	-0.8	5.5	0.68	-4	i	0	2	-1.9	0.7
CC(C)c1csc(CN2CCC(CO)(Cc3ccccc3)CC2)n1	67*	1.9	-1.9	0.68	-9	i	-29	-45	-6.2	0.0
Cc1nnc2ccc(-c3ccc(NC(=O)c4ccco4)cc3)nn12	-5	-4.6	-55	0.7	1	i	-4	-7	18	0.3
CCCS(=O)(=O)N1CCN=C1SCc1cccc2ccccc12	4	-1.0	4.5	0.71	1	i	0	-24	2.7	-0.4
COc1ccccc1/C=C/C1=NC(=C\N(C)C)/C(=O)O1	5	.	-80	0.76	-6	.	.	.	.	-0.1
CCOC(=O)CNC(=O)CSc1ncnc2c1cnn2-c1ccc(OC)cc1	3	.	-1.3	0.71	-1	.	.	.	.	-0.6
COc1ccc(NC(=S)N2CCN(Cc3ccc(C)cc3)CC2)cc1	-14	-0.1	3.6	0.67	-2	i	4	7	1.4	0.1
CC(C(=O)Nc1cccc(Br)c1)c1ccc([N+](=O)[O-])cc1 (centres undefined)	19	-0.9	2.5	0.68	1	i	-1	1	-1.9	-0.1
COC(=O)[C@@]1(Cc2ccc(F)cc2)[C@H]2c3cc(C(=O)N4CCCC4)n(CCc4ccc(O)c(O)c4)c3C[C@H]2CN1C(=O)c1ccccc1	16	.	0.6	.	6	.	.	.	.	-0.7
O=C(Cn1nnc2ccccc2c1=O)N1CCCc2ccccc21	-4	.	-2.1	0.68	-11	.	.	.	.	0.4
CC(=O)Nc1ccc(Nc2ncnc3c2cnn3-c2cccc(C)c2)cc1	8	.	-25	0.71	-8	.	.	.	.	-0.6
COc1ccc(OC)c(C(=O)COC(=O)c2c(OC)cccc2OC)c1	7	.	-2.0	0.74	-2	.	.	.	.	-0.2
COc1cccc(OCC(O)CN(CCO)Cc2ccccc2)c1 (centres undefined)	-1	.	4.6	0.73	0	.	.	.	.	-0.1
COc1ccc(CNC(=O)c2ccc(Cn3nc(C)c([N+](=O)[O-])c3C)o2)cc1	-10	-8.9	3.4	0.63	0	i	-18	-17	1.7	-1.0
COc1cccc(NS(=O)(=O)c2c(C(=O)N3CCCCCC3)c(C)n(C)c2C)c1	-11	0.8	0.6	0.71	-2	i	7	7	-2.9	-0.2
COc1ccc(CNc2ncnc3ccccc23)cc1	-9	-0.2	0.3	0.58	70	i	-1	-22	16	-0.4
CC(C)(C)NC(=O)COC(=O)CCC(=O)c1ccc(F)cc1	-5	-2.5	1.5	0.74	-2	i	0	-3	-1.8	1.2
COC(=O)Cc1ccc(NC(=S)N2CCN(c3cc(Cl)ccc3C)CC2)cc1	1	-2.9	1.0	0.73	1	i	6	5	-3.1	0.1
C#CCOc1ccc(C2C(C#N)=C(N)Oc3cc(O)ccc32)cc1 (centres undefined)	5	4.5	-1.6	0.64	-4	i	-26	-37	-4.2	2.3
Cc1cnnn1-c1ccc([N+](=O)[O-])cc1	6	-1.3	1.0	0.66	-5	i	20	18	1.6	0.2
O=C(Cn1ncc2c(=O)oc3ccccc3c21)NCC1CCCO1 (centres undefined)	-4	-3.3	5.2	0.77	1	i	8	5	-3.0	-0.1
O=C(COC(=O)/C=C/c1cccc([N+](=O)[O-])c1)NCc1ccc2c(c1)OCO2	-2	-2.4	5.1	0.72	-1	i	8	9	-6.3	-0.6
CN(Cc1ccc(F)cc1)C(=O)c1cccc(S(=O)(=O)N2CCN(c3ccccc3)CC2)c1	5	-0.7	0.7	0.7	16	i	-3	3	4.3	1.1
COc1ccc(C2=CC(=O)C[C@H](c3ccc(F)cc3)C2)cc1OC	.	6.0	-5.8	0.73	1	i	-19	-38	-18	-0.3

A portion of the library, so the mix of outcomes need not match the whole.
